CapD inh: Bacillus anthracis CapD inhibitors, primary screen, biochemical, fluorescence intensity; CapD gamma-glutamyltranspeptidase (Bacillus anthracis Ames Ancestor); purified CapD enzyme, fluorescence intensity read-out; stronger effect = lower value; some hits fall short of the stated cut; z-score (no concentration beside the values); actives 0.23% (n = 140,000);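 active = z-score under -4 in either of two replicates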;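 also: stock transfer was 100 nL into about 40 µL; score is relative to mean and spread of the plate; one replicate is shown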
AID504770: growth inhibition of E. coli YBA685, primary screen, V. cholerae RctB inhibitors; E. coli YBA685 rctB-dependent plasmid, OD600 growth, 3 h; stronger effect = lower value; z-score (test concentration not listed); actives 0.27% (n = 130,000); AID 504770, 2011;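 active = z-score under -2 on both plates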;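 also: wells of about 30 µL received 100 nL stock; score is relative to mean and SD of the test wells; the first replicate is given; strong numbers were not always called active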
* hit, by the source's call; . = not tested or not shown; & = joins results of further samples.

Compound | AID504770 | CapD inh
CCCn1c(=O)n(C)c(=O)c2c(SCc3cc(=O)n4ccsc4n3)nc(CC(C)C)nc21 | 0.4 | .
COc1ccc2c(c1OC)C(=O)OC2CC(=O)c1ccccc1 (stereo not given) | -0.25 | -2
COc1ccc(C2=NN3C(C2)c2cc(Cl)ccc2OC3c2ccccc2Cl)cc1 (stereo not given) | . | -0.36
N#Cc1ccc(C(=O)OC2CCCCC2=O)cc1 (stereo not given) | 0.75 | .
Cc1ccc(-c2ocnc2C(=O)O)cc1 | -0.9 | 0.11
O=C1c2cccc3c(N4CCOCC4)ccc(c23)C(=O)N1c1ccccc1 | -0.25 | .
CCN(Cc1cc(OC)c(OC)c(OC)c1)C(=S)Nc1cccc(SC)c1 | 0.3 | 1.4
Nc1nc2ccc(S(=O)(=O)c3ccccc3)cc2[nH]1 | -0.55 | 0.49
Cc1nn(-c2ccccc2)c(OC(=O)C2CC2)c1S(=O)(=O)c1ccccc1 | -0.15 | -0.34
COc1cc(C2C=C(Nc3ccccc3)C(=O)N2c2ccccc2)ccc1O (stereo not given) | . | 0.31
CCn1c(=NC(=O)c2ccc(S(=O)(=O)N3CCCC3)cc2)sc2ccccc21 | -0.95 | 0.75
CN1c2ccccc2C2=C(C(c3cccnc3)C(C#N)=C(N)O2)S1(=O)=O (stereo not given) | -1 | -0.68

Look-ups from the list:
Result for CCCn1c(=O)n(C)c(=O)c2c(SCc3cc(=O)n4ccsc4n3)nc(CC(C)C)nc21 in AID504770: 0.4
Result for CN1c2ccccc2C2=C(C(c3cccnc3)C(C#N)=C(N)O2)S1(=O)=O (stereo not given) in CapD inh: -0.68
Result for CCn1c(=NC(=O)c2ccc(S(=O)(=O)N3CCCC3)cc2)sc2ccccc21 in AID504770: -0.95

Further compounds follow:
Compound | AID504770 | CapD inh
CCOc1cc2c(cc1OCC)-n1cccc1C(c1cc(C)c(OC)cc1C)NC2 (stereo not given) | -0.65 | -0.59
COC(=O)c1cc(OC)c(OC)cc1NC(=O)c1cccc(C)c1 | . | 0.76
O=C(OCC1CC(c2ccccc2)=NO1)c1ccc2ccccc2n1 (stereo not given) | -0.4 | 1.8
NC(=O)c1ccc(NC(=O)COC(=O)/C=C/c2ccc(Cl)cc2)cc1 | -0.45 | 0.4
Cc1ccc(NC(=O)C(C)NS(=O)(=O)c2ccc(F)cc2)cc1C (stereo not given) | . | -0.48
CC1CCc2onc(C(=O)N(C)c3ccccc3)c2C1 (stereo not given) | 0.7 | -0.3
CC(C)CC(C(=O)c1ccccc1)c1ccccc1 (stereo not given) | -0.75 | -0.39
CCOC(=O)c1sc2nc(CN3CCCCC3)nc(N3CCCC3)c2c1C | 1.2 | .
CC(Sc1nnc(N)s1)C(=O)NCCC1=CCCCC1 (stereo not given) | 0.1 | .
Cc1ccc(NC(=O)C(NC(=O)c2ccc(C)cc2)C23CC4CC(CC(C4)C2)C3)cc1 (stereo not given) | . | -0.28
O=C(COc1cccc(Oc2ccccc2)c1)N1CCN(Cc2ccccc2)CC1 | -0.6 | 0.22
CCC1(O)CC(C)N(C)CC1C (stereo not given) | -0.25 | 0.3
Cc1ccc2c(c1)=C(c1sc(N)nc1O)C(=O)N=2 | 1.4 | -0.02
O=C(Nc1ccc(F)cc1)c1cc(=O)[nH]c2ccccc12 | 1.9 | 0.32
COc1cccc(OC)c1C(=O)N(C1CC1)C1CCN(Cc2ccccc2)CC1 | . | -0.67
O=C(NCCN1CCOCC1)c1c(O)nc2ccccn2c1=O | -0.1 | 24
CC(C)C(=O)NCCCc1nc2ccccc2n1C | -0.35 | 0.71
COc1ccc(Cc2nnc(Nc3ccc(Cl)cc3Cl)o2)cc1OC | 0.1 | 0.27
Cc1sc2ncnc(SCC(=O)N3CCOCC3)c2c1C | 0.05 | 0.14
CCc1ccc(NC(=O)Cn2c(=O)n(C3CCCCC3)c(=O)c3cccnc32)cc1 | -0.9 | 2
CN1C[C@H](CNC(=O)OCc2ccccc2)C[C@@H]2c3cccc4c3c(cn4C)C[C@H]21 | . | -0.035
O=C(c1ccc(Cl)c(Cl)c1)c1nn2c(nc(=O)c3ccccc32)s1 | -0.4 | 1.1
Cc1ccc2oc(=O)c3cnn(CC(=O)Nc4cc(C)on4)c3c2c1 | 0.45 | -0.35
NNc1nccc(C(F)(F)F)n1 | -0.9 | -0.01

Four entries from above in another layout:
> O=C(NCCN1CCOCC1)c1c(O)nc2ccccn2c1=O
  AID504770: -0.1 | CapD inh: 24

> CC(C)C(=O)NCCCc1nc2ccccc2n1C
  AID504770: -0.35 | CapD inh: 0.71

> COc1ccc(Cc2nnc(Nc3ccc(Cl)cc3Cl)o2)cc1OC
  AID504770: 0.1 | CapD inh: 0.27

> Cc1sc2ncnc(SCC(=O)N3CCOCC3)c2c1C
  AID504770: 0.05 | CapD inh: 0.14

New compounds follow
Compound | AID504770 | CapD inh
Cc1ccc2nc(-c3ccc(NC(=O)c4c(O)c5ccccc5[nH]c4=O)cc3)sc2c1 | . | -0.11
N#Cc1ccc(/C=N/n2c(-c3ccco3)csc2=Nc2ccccc2)cc1 | 1.2 | .
CS(=O)(=O)N1CCc2cc(C(=O)Cn3nc(C(=O)O)c4ccccc4c3=O)ccc21 | -0.05 | .
Cc1oc(-c2ccccc2)nc1C(=O)N1CCN(c2ccccc2)CC1 | 0.4 | .
Cn1c(-c2c(N)n(Cc3ccccc3)c3nc(C#N)c(C#N)nc23)nc2ccccc21 | -0.2 | .
COc1ccc(CC(=O)NCC2CCCO2)cc1 (stereo not given) | 1.4 | 0.62
CCNc1nc2ccccc2n1Cc1cccc(Cl)c1 | -0.55 | -0.64
CCC1CCCCN1C(=O)c1cc(-c2ccc(Cl)c(Cl)c2)on1 (stereo not given) | 0.15 | -1.2
COc1ccc(NC(=O)n2ccc(C(=O)N3CCOCC3)n2)cc1 | -0.4 | 0.13
CCCn1c(N)c(C(=O)CSc2ncn[nH]2)c(=O)n(C)c1=O | -0.25 | .
O=C1C=CC(=O)N1c1ccc2ccccc2c1 | -1.7 | .
O=S(=O)(c1cccc(-c2nnc(SCc3cn4ccsc4n3)n2-c2ccccc2)c1)N1CCCC1 | 0.1 | .
Nc1nc(SCCOc2ccccc2)nc(-c2ccncc2)n1 | -1.6 | .
CNC(=S)NN=C1CCCCCC1 | . | -0.43
CCC1(C)CC(=O)c2c(ccc3oc(C(=O)O)c(C)c23)O1 (stereo not given) | -0.55 | 73
CN1CCc2c(OCC(=O)N3CCC(Cc4ccccc4)CC3)cccc2C1=O | 0.05 | 0.4
N#CC1(c2ccccc2C2(C#N)CC2)CC1 | 0.2 | -0.47
Cc1cccc(N=Cc2cccc(O)c2)c1 | 0.3 | -0.44
c1coc(-c2nc3ccc4ccccc4c3c3c2CCCC3)c1 | -0.45 | 0.63
CC(C)(C)c1cc(NC(=O)c2ccc(C#N)cc2)on1 | -0.3 | .
Cc1cc(C)c(C#N)c(SC(F)F)n1 | -0.5 | .
O=C1CS(=O)(=O)N(Cc2ccccc2)c2cc(Cl)ccc21 | . | 1.7
COc1cc2c(C#N)c(OC)nc(N)c2c(N)n1 | -0.25 | .
COC(=O)c1ccccc1NC(=O)NC1CCCCC1 | -0.05 | -0.33

Given with two lines to a compound: 2 of the compounds above.
Each structure is followed by: AID504770, CapD inh
- CC(C)(C)c1cc(NC(=O)c2ccc(C#N)cc2)on1
→ -0.3, .
- COC(=O)c1ccccc1NC(=O)NC1CCCCC1
→ -0.05, -0.33

Additional entries.
Compound | AID504770 | CapD inh
COc1cccc(C(=O)CC(C#N)c2ccc(F)cc2)c1 (stereo not given) | -0.8 | -0.7
Cc1cc(C)cc(OC(C)C(=O)NCCCn2ccnc2)c1 (stereo not given) | -2.2 | .
Cn1nc(C(=O)Nc2cc(C(F)(F)F)ccc2N2CCOCC2)c2ccccc2c1=O | -0.5 | .
CCc1ccc(N/C(SCc2ccccc2C)=C(/C#N)C(N)=O)cc1 | . | -0.01
Nc1c(C(=O)NC2CC2)c2nc3ccccc3nc2n1Cc1ccccc1 | 0.6 | .
CC1(C)CC(=O)C2=C(C1)Nc1ncnn1C2c1ccccc1 (stereo not given) | 0.65 | 0.3
CCOc1ccccc1N1CCN(C(=O)c2cc3c(s2)CCC3)CC1 | 0.65 | -0.65
CCOC(=O)/C(C#N)=C/c1sccc1C | -1.2 | -0.9
COC(=O)c1c(C)nn(C(=O)c2ccc(Cl)cc2)c1-c1snnc1C | -0.25 | 0.47
Cc1noc(C)c1-c1nnc(-c2cccc(C(F)(F)F)c2)o1 | -0.65 | 0.12
S=C1NCN(CCc2ccncc2)CN1 | . | 0.24
O=C(CSc1nncn1-c1ccccc1)CSc1nncn1-c1ccccc1 | -0.45 | .
CCN1C(=O)/C(=C/c2ccc(-c3cccc(Cl)c3C)o2)N(CC)C1=S | . | 0.39
C/C(=N\NC(=S)Nc1ccccc1C)c1ccc(O)cc1 | 0.45 | .
O=C(CCCSc1nc2ccccc2[nH]1)NC1=NCCS1 | -0.45 | .
COc1cc(/C=C2/C(=O)NC(=O)N(c3ccc(C)cc3)C2=O)cc(Br)c1OC | . | -0.5
Cc1cnc(NC(=O)c2ccccc2C(F)(F)F)s1 | -1.5 | .
Cc1cc(=O)oc2cc(OC(C)C(=O)Nc3ccccc3)ccc12 (stereo not given) | -0.5 | 31
CC(=O)N(O)CCCCCNC(=O)CCC(=O)N(O)CCCCCNC(=O)CCC(=O)N(O)CCCCCN | -0.05 | 0.22&1.5
CCN(CCN(C)C)C(=O)Cn1nc(Cc2ccncc2)c2ccccc2c1=O | -0.05 | -0.91
O=C1CCCCCN1CP(=O)(O)CN1CCCCC1 | 0.2 | 0.63
CCOc1ncccc1C(=O)OCC(=O)Nc1ccc(Br)c(C)c1 | 0 | .
COC(=O)c1ccc(COC(=O)c2cc(-c3ccco3)nc3ccccc23)cc1 | -0.45 | .
COC(=O)C1=C(C)NC(C)=C(C(=O)OC)C1c1cn(-c2ccccc2)nc1-c1ccco1 | -0.15 | .
O=C(NCc1ccc2c(c1)OCO2)C1CCN(c2ncccn2)CC1 | 1.4 | .
N#Cc1c(Nc2ccccc2)c(C=NCCN2CCOCC2)c[nH]c1=O | -0.4 | 2.5
Cc1ccc(-c2noc(CNC(=O)C(c3ccccc3)c3ccccc3)n2)cc1 | 2 | -0.55
S=C1NCCc2ccccc21 | 0.15 | -1.7
S=C(Nc1ccccc1)N1CCC(c2ccccc2)=N1 | 1 | 2.6
CC(=O)N1/C(=C/c2ccc(N(C)C)cc2)C(=O)c2ccccc21 | 2 | -0.62
Cc1ccccc1Nc1nc(C2(C)CC3(CC(C)(C)OC3=O)C(=O)O2)cs1 (stereo not given) | . | -0.5
COc1ccc(C(=O)c2cnc3ccccn23)cc1Cl | 0.3 | .
CN1c2ccsc2C(O)=C(C(=S)Nc2ccc(Cl)cc2)S1(=O)=O | . | -1.6
COc1cc(C(CC#N)CC#N)cc(OC)c1OC | -0.2 | 0.12
O=C(CCN1CCN(C(c2ccccc2)c2ccccc2)CC1)N/N=C/c1cccnc1 | -1.1 | .
CC(C)c1ccccc1NC(=O)CC(C)(C)C | -0.6 | .
Cc1cccc(-n2nc3c(c2NC(=O)c2ccc(C(=O)c4ccccc4)cc2)CS(=O)(=O)C3)c1C | . | -0.28
CCCN(Cc1nnc(-c2ccco2)o1)C(=O)Cc1n[nH]c(=O)c2ccccc12 | 1.5 | .
CC(=O)Nc1cccc(N=Cc2c(C)[nH]n(-c3ccc(F)cc3)c2=O)c1 | . | -0.68
O=C(Nc1nc2ccccc2[nH]1)C1CCCN(C(=O)c2ccc(Cl)cc2)C1 (stereo not given) | -0.9 | .
O=C(NC1CCN(C(=O)c2ccccc2Br)CC1)c1ccccc1 | . | 0.55
O=C(Nc1ccc2nc(SCC(=O)N3CCc4ccccc43)sc2c1)c1ccccc1Cl | 0.65 | 3
CCOC(=O)c1c(C)n(-c2ccc(OC)cc2)c2ccc(OC)cc12 | -0.55 | 0.08
C=CCOC(=O)C1=C(C)NC(SCC(N)=O)=C(C#N)C1c1cccs1 (stereo not given) | . | 4.8
Cc1cc(NC(=O)CN2C(=O)S/C(=C\c3ccccc3)C2=O)no1 | 0.8 | 0.55
CN(C)C(=O)c1ccc(N(C)S(=O)(=O)c2ccccc2)cc1 | -0.4 | .
CCOC(=O)c1cc2n(n1)C(C(F)(F)C(F)(F)F)CC(C)N2 (stereo not given) | 1.4 | -0.12
COCC(C)n1c(COc2ccccc2F)nnc1SCC(C)C (stereo not given) | 2 | .
CC1(C)C(=O)C2(C(=O)NCc3ccccc3)CCC1C2 (stereo not given) | -0.15 | 0.74
CS(=O)(=O)c1ccc(C(=O)O)c(Cl)c1 | . | 0.64
N=c1nc(N)nc2n1NC(c1ccc(F)cc1)=CS2 | 0.3 | .
CSc1nnc2c(n1)OC1(CCCCC1)Nc1ccccc1-2 | . | 0.45
O=c1oc2cc(O)ccc2c(-c2ccccc2)c1-c1ccccc1 | -0.8 | 20
Cc1nc2ccccn2c1-c1nnco1 | -0.15 | 21
CNC(=S)N(Cc1ccc2c(c1)OCO2)C1CCCC1 | 0 | .
Cc1ccc(NC(=O)C2CC(O)CN2C(=O)Oc2ccccc2)cc1C (stereo not given) | . | 6
CCc1ccc(N2C(=O)C3C4CCCC4=C4CCCC4C3C2=O)cc1 (stereo not given) | -0.2 | .
